Arbovirus anti – antivirals against arbovirus infection, primary screen, cell-based, full library, 10K replicate subset; arbovirus infection cell-based antiviral screen; inhibition, % at 10 µM; actives 0.37% (n = 200,000);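 active = inhibition from about 30%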;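 note: bluetongue infection of BSR cells; cell survival read as ATP light after 72 h; 0% = infected wells without compound and 100% = uninfected wells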
RecA splice inh – Mtb RecA intein splicing inhibitors, primary screen, biochemical, fluorescence, HTS. Protein RecA (Mycobacterium tuberculosis (strain ATCC 25618 / H37Rv)), P9WHJ3. cell-free RecA intein splicing. inhibition, %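 (about 9 µM by stock and volumes)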. actives 0.75% (n = 290,000); in the data active = inhibition above about 30%; inconclusive = no clear call, values can overlap the other calls;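 note: 0% = vehicle wells and 100% = reference inhibitor control wells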
Target sequence (P9WHJ3 whole entry, looked up, canonical isoform): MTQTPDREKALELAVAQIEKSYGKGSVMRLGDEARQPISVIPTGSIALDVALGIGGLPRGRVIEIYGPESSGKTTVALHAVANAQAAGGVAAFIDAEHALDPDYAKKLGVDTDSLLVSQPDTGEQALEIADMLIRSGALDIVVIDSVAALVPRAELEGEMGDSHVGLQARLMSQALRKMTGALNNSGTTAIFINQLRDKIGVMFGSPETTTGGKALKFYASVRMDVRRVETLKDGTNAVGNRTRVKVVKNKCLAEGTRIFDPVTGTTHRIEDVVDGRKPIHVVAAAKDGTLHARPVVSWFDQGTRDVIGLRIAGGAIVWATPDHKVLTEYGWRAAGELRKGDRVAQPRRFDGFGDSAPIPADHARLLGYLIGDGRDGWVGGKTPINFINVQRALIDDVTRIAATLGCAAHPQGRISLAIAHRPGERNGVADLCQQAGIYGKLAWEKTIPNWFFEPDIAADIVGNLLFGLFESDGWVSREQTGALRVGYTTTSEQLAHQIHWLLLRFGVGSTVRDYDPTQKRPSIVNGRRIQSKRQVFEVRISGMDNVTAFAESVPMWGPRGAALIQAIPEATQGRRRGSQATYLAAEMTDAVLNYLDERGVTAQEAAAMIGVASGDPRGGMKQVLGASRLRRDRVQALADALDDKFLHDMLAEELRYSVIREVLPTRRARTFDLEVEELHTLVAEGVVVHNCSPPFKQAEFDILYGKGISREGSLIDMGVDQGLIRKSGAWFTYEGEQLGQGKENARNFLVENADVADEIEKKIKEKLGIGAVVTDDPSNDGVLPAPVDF
Mtb bLac sens – beta-lactam sensitization of Mtb H37Rv, H37Rv. M. tuberculosis H37Rv growth with meropenem, percent inhibition; hits of this screen are not shown here. inhibition, % at 25 µM. actives 0.27% (n = 330,000). AID 434955, 2010;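 active = about 74% or more and at least 40 points above the plate without the antibiotic, then above 30% in a dose series; inconclusive = first-round hits that could not be retested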;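 note: growth measured after seven days incubation then overnight dye step; 0% = bacteria only wells and 100% = bacteria with antibiotic; twin plates without the antibiotic show which effects depend on it; some results filed as inactive read as strong as hits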
Mtb H37Rv – M. tuberculosis H37Rv growth inhibitors, H37Rv strain (AID 1626) | actives 0.95% (n = 220,000) | M. tuberculosis H37Rv growth inhibition; higher % means a stronger effect | inhibition, % at 10 µM, or IC50 in µM where a hit was titrated;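 active = confirmed in a dose series; inconclusive = inhibition above 80% but not taken into the dose series; inactive = below 80% or under 30% at every dose of the series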;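 note: bacteria incubated seven days before Alamar blue readout; 0% = bacteria only wells and 100% = bacteria with antibiotic wells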
YopH PTP inh – YopH tyrosine phosphatase inhibitors, primary screen, biochemical, fluorescence Ex485/Em525; YopH tyrosine phosphatase [Yersinia enterocolitica]; inhibition, %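 (about 10 µM by stock and volumes)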; actives 0.16% (n = 140,000); AID 898, 2007;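 active = inhibition of 50% or more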;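 note: controls were vehicle for no effect and minimum signal wells for full effect; inactives centre near -20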
Arbovirus anti repeat – second read-out of Arbovirus anti, no call of its own (marks repeat the call); inhibition, %; measured here: 10K subset replicate screen; many hits read low in the repeat;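 first of two repeat runs on a subset; 0% = infected and 100% = uninfected wells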
Starred values were filed as active, the others as inactive; ? = inconclusive; . = not tested or not shown.

SMILES | Arbovirus anti | RecA splice inh | Mtb bLac sens | Mtb H37Rv | YopH PTP inh | others
CCCCNC(=O)CC1N=C2c3ccccc3N=C(SCC(=O)Nc3ccccc3C)N2C1=O (centres undefined) | -3 | . | -8 | -7% | -18
Cc1ccnc(NS(=O)(=O)c2ccc(N3C(=O)c4ccccc4C3=O)cc2)n1 | 3 | -2.9 | 3 | . | -20
Cc1cccc(OC(=O)c2cccnc2)c1C | . | 1.1 | 4 | . | .
OC(CN1CCC(Cc2ccccc2)CC1)c1ccccc1 (centres undefined) | . | 1.3 | -4 | . | .
COc1cc(/C=N/Nc2cccc(C)c2)ccc1OC(=O)c1ccco1 | -29 | 9.8 | 34 | ? | -23
CCCSc1nc2c(cnn2-c2ccccc2)c(=O)[nH]1 | 19 | -0.4 | -7 | 5% | -25 | Arbovirus anti repeat=-15
O=[N+]([O-])c1cc(-c2nc(-c3ccncc3)no2)ccc1Cl | -38 | 6.4 | 1 | 1% | -17
Cc1ccc(C(=O)/C=C/c2cn(CN3CCN(C)CC3)c3ccccc23)cc1 | -42 | -1.9 | 92 | 56% | -6
O=C(c1cc2c(s1)-c1ccccc1OC2)N1CCC2(CC1)OCCO2 | -15 | . | -3 | . | -26
COC(=O)Cn1c(CCS(=O)(=O)c2ccc(Cl)cc2)nc2ccccc21 | 14 | 0.7 | 47 | -2% | -11

Two neighbouring entries already listed, quoted:
SMILES | Arbovirus anti | RecA splice inh | Mtb bLac sens | Mtb H37Rv | YopH PTP inh | others
CCCCNC(=O)CC1N=C2c3ccccc3N=C(SCC(=O)Nc3ccccc3C)N2C1=O (centres undefined) | -3 | . | -8 | -7% | -18
Cc1ccnc(NS(=O)(=O)c2ccc(N3C(=O)c4ccccc4C3=O)cc2)n1 | 3 | -2.9 | 3 | . | -20

Other compounds
SMILES | Arbovirus anti | RecA splice inh | Mtb bLac sens | Mtb H37Rv | YopH PTP inh | others
COc1ccccc1N1CCN(C(=O)C(C)N(c2ccccc2)S(C)(=O)=O)CC1 (centres undefined) | 11 | -1.1 | -8 | -8% | -7
COc1cc(NC(=O)CCc2nnc3ccc(N4CCCC4)nn23)cc(OC)c1OC | . | -6.0 | 7 | . | .
CC(C)(C)OC(=O)CNC(=O)c1[nH]cnc1C(=O)NC(c1ccccc1)c1ccccc1 | . | 8.9 | -2 | . | .
CCNC(=S)N(CCc1c(C)[nH]c2ccc(Cl)cc12)Cc1ccco1 | -18 | 19 | 10 | 1% | .
CCOC(=O)c1nnn(-c2ccc([N+](=O)[O-])cc2[N+](=O)[O-])c1C | -22 | -2.5 | 61 | -6% | .
CSCCC(NS(=O)(=O)c1ccc(Cl)cc1)C(=O)OCC(=O)NC1CCCCC1 (centres undefined) | 5 | . | 0 | 4% | 2
O=C(CSc1nc2ccccc2nc1N1CCCC1)Nc1ccc(F)cc1 | . | 0.6 | 1 | . | .
COc1cc(C(=O)N2CCN(C/C=C/c3ccccc3)CC2)cc(OC)c1OC | 0 | 1.1 | -6 | -17% | -7
COc1ccc(CNCc2cc(OC)ccc2OC)cc1 | . | 1.9 | -1 | . | .
COCCn1ccc2c(OCC(=O)NCc3ccccc3)cccc2c1=O | . | -0.8 | -2 | . | .

A draw from above in order of SMILES length, highest first:
SMILES | Arbovirus anti | RecA splice inh | Mtb bLac sens | Mtb H37Rv | YopH PTP inh | others
CCOC(=O)c1nnn(-c2ccc([N+](=O)[O-])cc2[N+](=O)[O-])c1C | -22 | -2.5 | 61 | -6% | .
CCNC(=S)N(CCc1c(C)[nH]c2ccc(Cl)cc12)Cc1ccco1 | -18 | 19 | 10 | 1% | .
O=C(CSc1nc2ccccc2nc1N1CCCC1)Nc1ccc(F)cc1 | . | 0.6 | 1 | . | .

Further results.
SMILES | Arbovirus anti | RecA splice inh | Mtb bLac sens | Mtb H37Rv | YopH PTP inh | others
Cc1ccc(SCCC(=O)Nc2c(C)n(C)n(-c3ccccc3)c2=O)cc1 | -1 | -2.7 | -10 | -12% | -19
c1ccc(-n2ncc3c(NC4CCCCCC4)ncnc32)cc1 | -8 | 1.5 | 4 | 26% | . | Arbovirus anti repeat=-5
Cc1ccc(N2CC(C(=O)OCC(=O)Nc3ccccc3F)CC2=O)cc1 (centres undefined) | 8 | 0.0 | 2 | 0% | .
S=C(NCC1CCCO1)N1CCN(c2ccccc2)CC1 (centres undefined) | -9 | 1.6 | 1 | -4% | .
Cc1ccc(Cl)cc1NS(=O)(=O)c1ccc2oc(=O)ccc2c1 | . | -2.4 | -1 | . | .
CCNC(=O)COc1cccc2ccccc12 | 5 | -0.6 | 1 | 0% | 11
COc1cc(/C=C2/C(=O)NN(c3ccc(C)c(Cl)c3)C2=O)cc([N+](=O)[O-])c1O | . | -2.5 | 50 | . | .
O=C(NCc1ccccc1)C(c1ccco1)N(C(=O)c1csnn1)c1ccccc1F (centres undefined) | . | 1.6 | -4 | . | .
O=C(O)CCCCCNC(=O)C(=O)C1C(=O)Nc2ccccc21 (centres undefined) | . | -2.0 | 2 | -1% | .
COc1ccccc1C(=O)CC(=O)C(=O)Nc1cccc([N+](=O)[O-])c1C | . | -8.1 | 12 | . | .
CSc1ccccc1OCc1cc(C(=O)NCC(C)(C)N2CCOCC2)no1 | . | -0.2 | 4 | . | .
COc1ccc(C(=O)N2CCC(C(=O)N3CCN(Cc4ccccc4)CC3)CC2)cc1 | . | -0.6 | -11 | . | .
C/C(=N\NC(=O)C(=O)Nc1c(C)n(C)n(-c2ccccc2)c1=O)c1ccncc1 | . | -2.4 | -5 | -9% | .
C#Cc1ccc(C(=O)Nc2cc(C(N)=O)ccc2N2CCOCC2)cc1 | 2 | 1.5 | ? | -5% | -20
CCc1nc2ccccc2c(C(=O)OCC(=O)NCc2ccc3c(c2)OCO3)c1C | -11 | 2.0 | 74 | 2% | -4
CCN(CC(=O)Nc1c(F)cccc1F)C(=O)CCC(=O)c1ccc(F)cc1 | . | 2.6 | -3 | . | .
COc1ccc(Nc2c3c(nc4ccccc24)CCCC3)cc1OC | -5 | -3.7 | -6 | 8% | .
CN(C)c1ccc(NC(=S)c2ccc3ccccc3n2)cc1 | . | 0.2 | 63 | . | .
COc1ccc(N(CN2C(=O)c3ccccc3C2=O)C(=O)C(C)C)cc1 | 4 | 0.3 | -4 | 3% | -35
O=C(CN(Cc1ccccc1)C(=O)CCC(=O)Nc1ccccn1)NCc1ccc(F)cc1 | . | -2.3 | -1 | . | .
COc1ccc(C2/C(=C(/O)c3ccccc3)C(=O)C(=O)N2c2ccccn2)cc1OC (centres undefined) | 4 | -1.1 | -1 | -11% | .
C=CCNC(=O)C1=NN(c2c(F)c(F)cc(F)c2F)C(=O)CC1 | . | -3.1 | 9 | . | .
O=C1C(=O)N(CC2CCCO2)C(c2ccccc2[N+](=O)[O-])/C1=C(/O)c1ccccc1 (centres undefined) | 3 | -6.7 | -1 | -4% | .
Cc1cc(C)nc(SC2CCCCC2NS(=O)(=O)c2ccc(Cl)cc2)n1 (centres undefined) | -8 | 0.9 | 8 | 7% | -19
Cc1cc(C)cc(OCc2ccc(C(=O)O)o2)c1 | 1 | 0.8 | 10 | -7% | -3
O=C(NC1CCCCCCC1)NC1CCCCC1 | 2 | 3.1 | 3 | -5% | -1
O=C(CSc1nnnn1-c1ccccc1)Nc1ncc(Cc2cccc(Cl)c2Cl)s1 | -12 | -0.3 | 4 | 0% | -25
Cc1nccn1-c1c2c(c(C#N)c3nc4ccccc4n13)CCC2 | 4 | -18 | 5 | -3% | . | Arbovirus anti repeat=-2
Cc1ccc(Nc2nc(CSc3nnnn3-c3ccccc3)cc(=O)[nH]2)cc1 | -3 | 7.1 | -3 | . | -9
COc1ccccc1NC(=O)CN1CCN(CC(=O)Nc2ccccc2Cl)CC1 | . | -0.4 | -4 | . | .

5 compounds picked at random from the list so far, as already listed:
SMILES | Arbovirus anti | RecA splice inh | Mtb bLac sens | Mtb H37Rv | YopH PTP inh | others
Cc1cc(C)cc(OCc2ccc(C(=O)O)o2)c1 | 1 | 0.8 | 10 | -7% | -3
O=C1C(=O)N(CC2CCCO2)C(c2ccccc2[N+](=O)[O-])/C1=C(/O)c1ccccc1 (centres undefined) | 3 | -6.7 | -1 | -4% | .
COc1ccc(C2/C(=C(/O)c3ccccc3)C(=O)C(=O)N2c2ccccn2)cc1OC (centres undefined) | 4 | -1.1 | -1 | -11% | .
Cc1cc(C)nc(SC2CCCCC2NS(=O)(=O)c2ccc(Cl)cc2)n1 (centres undefined) | -8 | 0.9 | 8 | 7% | -19
Cc1nccn1-c1c2c(c(C#N)c3nc4ccccc4n13)CCC2 | 4 | -18 | 5 | -3% | . | Arbovirus anti repeat=-2

Later entries:
SMILES | Arbovirus anti | RecA splice inh | Mtb bLac sens | Mtb H37Rv | YopH PTP inh | others
CCOC(=O)C1C(=O)NC(c2ccccc2)=NC1c1ccc(F)cc1 (centres undefined) | 3 | -0.9 | -13 | 3% | -42
CCN(CC)c1nc2ccccc2n2cnnc12 | -5 | 0.3 | -1 | 1% | -40
CC(=O)c1sc2nc(-c3cccs3)ccc2c1N | 0 | -29 | 9 | -2% | -8
N=C1c2ccccc2CN1NC(=O)c1cccc(S(=O)(=O)N2CCCCC2)c1 | 10 | 0.6 | -4 | 5% | -1
COC(=O)C1=CO[C@@H](C)[C@@H]2CN3CC[C@@]4(C(=O)Nc5ccccc54)[C@@H]3C[C@H]12 | -2 | 2.6 | 0 | 0% | -10
Cc1ccc(NC(=O)c2ccc3c(c2)OCCO3)cc1 | 7 | -1.1 | -5 | 5% | 3
O=C(CCN1C(=O)/C(=C/c2ccccc2F)SC1=S)NC1C=CS(=O)(=O)C1 (centres undefined) | . | 1.9 | 0 | . | .
C/C(=N\NC(=O)C(C)Sc1ccccc1)c1ccc([N+](=O)[O-])cc1 (centres undefined) | . | -0.2 | -15 | . | .
CCCCCc1nc2c(c(=O)c3ccccc3n2C)c(=O)n1C1CCCCCC1 | -38 | 0.1 | 89 | ? | -26
Cc1cc(C)c(N2C(=NC(=O)CCCC(=O)O)SC3CS(=O)(=O)CC32)c(C)c1 (centres undefined) | 10 | 0.2 | -8 | 1% | -40
C/C(=N\O)c1ncc(C(F)(F)F)cc1Cl | 3 | -0.3 | 2 | 1% | .
O=C(O)CSc1nc2c(c(=O)[nH]1)CCCC2 | 4 | -2.3 | 0 | -8% | -30
O=C(CCNC(=O)c1ccccc1Cl)NCc1ccncc1 | . | -1.3 | -11 | . | .
O=C(Cn1cc(C(=O)C(F)(F)F)c2cc(Br)ccc21)N1CCOCC1 | -4 | -1.4 | -4 | -1% | .
O=S(NCc1ccccc1)C12CC3CC(CC(C3)C1)C2 (centres undefined) | 4 | -0.1 | -1 | -3% | -28
Cc1cc(N(C)C)ccc1N=Nc1ccc2ncccc2c1 | . | 8.8 | 72 | -4% | .
COc1cc(NC(=S)NCCCN2CCOCC2)c(OC)cc1Cl | 4 | -3.6 | -3 | 7% | .
O=P(O)(O)c1cc(-c2ccccc2)oc1-c1ccccc1 | . | 0.3 | -9 | -16% | .
Cc1cn(C2CCC(CO)O2)c(=O)[nH]c1=O (centres undefined) | . | -1.1 | 17 | . | .
CCN(CC)c1ccc(C(=O)OCC(=O)N(C)Cc2ccccc2)cc1 | -2 | 2.4 | 15 | -4% | .
O=C(CN1C(=O)NC2(CCCCCC2)C1=O)NC1CC1 | 6 | -1.3 | 3 | 1% | .
CCS(=O)(=O)N1CCC(C(=O)N2CCC3(CC2)OCCO3)CC1 | 0 | -0.3 | 0 | -3% | -34
Cc1nc2ccccc2c2c1C(=O)N(c1cccc(C(=O)O)c1)C2=O | 2 | 45* | 6 | -1% | .
COc1ccc(C2CC(c3ccccc3Cl)Nc3ncnn32)cc1OC (centres undefined) | 3 | -1.8 | 1 | 11% | -25
COc1cc(/C=N/Nc2ccc([N+](=O)[O-])cn2)cc(OC)c1O | . | -4.2 | 2 | . | .
COc1ccc(CNC(=O)COc2ccc(OC)cc2)cc1 | . | 2.4 | 0 | . | .
Cc1ccc(C(=O)NCC(C)NC(=O)c2ccc(C)c([N+](=O)[O-])c2)cc1[N+](=O)[O-] (centres undefined) | . | 0.5 | -6 | . | .
Cc1ccccc1NCC(=O)c1ccc(Br)cc1 | 5 | 10 | -12 | -4% | -30
CN(CC(=O)Nc1cccc2c1CCCC2)S(=O)(=O)c1ccc(Br)cc1 | 0 | 1.9 | -6 | -10% | -44
COC(=O)C1=C(C)NC(=O)NC1c1cccc(OC)c1OCc1ccccc1 (centres undefined) | -5 | -4.7 | 4 | . | -7
Cc1cc(C)c(C)c(OCc2nc(-c3cccnc3)no2)c1 | 3 | 3.7 | 1 | -3% | 2
O=C(NC1CCCCCC1)c1cc2n(n1)C(C(F)(F)F)CC(c1ccco1)N2 (centres undefined) | 0 | -2.0 | 56 | -1% | -36

Screens deposited in PubChem BioAssay by several laboratories.

The list is partial; the hit share may differ from the screen's.
